Source: PubChem BioAssay
WNV NS2B-NS3 inh: blocks West Nile virus NS2B-NS3 protease activity; 0.18% of 65,000 active; z-score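 (tested at a level between 10 and 100 µM)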; WNV NS2B-NS3 protease, fluorogenic substrate Ex360/Em465; stronger effect = lower value; AID 577; P06935;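 active = z-score at -3 or under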;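 note: score is relative to mean and spread of the compound wells of a plate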
Target sequence (P06935 1371-1501 limits assumed): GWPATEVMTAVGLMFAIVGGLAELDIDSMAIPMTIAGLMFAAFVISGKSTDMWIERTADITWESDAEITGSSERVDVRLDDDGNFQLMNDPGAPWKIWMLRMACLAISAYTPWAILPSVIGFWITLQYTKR
Target sequence (P06935 1502-1679 limits assumed): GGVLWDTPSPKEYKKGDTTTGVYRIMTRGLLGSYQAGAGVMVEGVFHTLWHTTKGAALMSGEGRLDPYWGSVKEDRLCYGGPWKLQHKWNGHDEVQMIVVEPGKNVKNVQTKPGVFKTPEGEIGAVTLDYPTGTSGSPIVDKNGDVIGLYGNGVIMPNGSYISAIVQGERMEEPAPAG
Hsc70 ATP site: Hsc70 inhibitors, probe displacement, primary screen, biochemical, fluorescence polarization (AID 568); displacement, % at 20 µM, or IC50 in µM where a hit was titrated; Hsc70 fluorescence polarization, probe displacement; higher % means a stronger effect; strong numbers were not always called active; 83,000 tested, under 10 active;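 active = displacement above 50% without optical interference and an IC50 on retest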;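 note: ATPase domain with a fluorescein-tagged ATP probe; 0% = vehicle and 100% = excess ADP; read after one hour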
MT1-MMP promoter: MT1-MMP gene expression reporter suppression – cell-based, luciferase reporter, luminescence (AID 618) | MT1-MMP promoter luciferase reporter cells, luminescence | calls from a first round at 10 µM; hits with a dose series show EC50 in µM | 0.62% of 87,000 active;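 active = over half of the reporter light lost at 10 µM or EC50 under 50 µM; inactive = the rest and hits that failed the dose series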;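 note: actives suppress MT1-MMP promoter-driven transcription so potencies describe inhibitors; HT1080 fibrosarcoma cells; overnight exposure; toxic or luciferase-blocking compounds were not removed from the actives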
* = called active by the depositor; i = inactive; . = no result given. An unsorted share of the library. About 0.87% of those tested had a hit in this group.

The line under a structure holds: WNV NS2B-NS3 inh | Hsc70 ATP site | MT1-MMP promoter
Cc1csc(NC(=O)CN2C(=O)C3CC=CCC3C2=O)n1 (centres undefined)
    . | 3.4% | i
O=C(C1CCCN(S(=O)(=O)c2cccc3nonc23)C1)N1CCN(c2ccccc2Cl)CC1 (centres undefined)
    . | 0.5% | i
Cc1cc(C)n(C(CC(=O)O)C(=O)O)n1 (centres undefined)
    -1.6 | 2.1% | i
COc1ccc(C(C)=O)cc1COC(=O)c1cnc(C)cn1
    -2.2 | 3.7% | i
C=C(C)CSc1nnc(CCNC(=O)OC(C)(C)C)o1
    0.93 | -5.3% | i
CC1Cc2ccccc2N1C(=O)c1cc2c(=O)n3ccccc3nc2n1C (centres undefined)
    -0.2 | 5.3% | i
COc1ccc(NC(=O)CN(C)C(=O)c2ccc(C)s2)cc1
    . | -0.2% | i
CS(=O)(=O)N(CC(=O)NCc1ccc(Cl)cc1)C1CCCCC1
    . | 1.3% | i
Cc1ccc(-n2nnnc2SCC(=O)c2cc(C)n(CC3CCCO3)c2C)cc1 (centres undefined)
    -1.1 | 6.2% | i
Cc1ccc(C)c(Cc2c(C)nc3c(C(=O)N4CCOCC4)cnn3c2C)c1
    -0.95 | -7.0% | i
Cc1ccc(NC2=Nc3ccccc3N3C2=Nc2c(c(C)nn2-c2ccccc2)C3c2ccc(O)c(O)c2)cc1 (centres undefined)
    . | 3.6% | i
Cc1ccc(CNC(=O)C(C)OC(=O)c2cccs2)cc1 (centres undefined)
    . | 4.1% | i
CCOC(=O)C1C(=O)OC(C)(C)C1C(C)C(=O)c1ccc(C)cc1 (centres undefined)
    . | 9.1% | i
Cc1ccc(S(=O)(=O)N2CCN(C(=O)c3cc4c(C)nn(-c5ccccc5C)c4s3)CC2)cc1
    . | 2.2% | i
CCn1c(=O)cc(SCC(=O)NCc2ccc3c(c2)OCO3)c2ccccc21
    -0.61 | 0.5% | i
CCOC(=O)CCC(=O)N1CCOCCOCCOCC1
    . | -0.2% | i
O=C(c1ccccc1)n1c(=S)nc2ccccn21
    -1 | -2.1% | i
O=C(NCc1ccco1)c1nc2c(nnn2Cc2ccccc2Cl)c(=O)[nH]1
    . | -0.3% | i
CC(C)n1c(N2CCN(CC(=O)Nc3ccc4c(c3)OCCO4)CC2)nc2ccccc21
    -0.8 | -1.2% | i
O=C1/C(=C/c2cccc(F)c2)CSc2sccc21
    . | 0.2% | i

Exported as labelled records: part of the list above
smiles: COc1ccc(C(C)=O)cc1COC(=O)c1cnc(C)cn1
  WNV NS2B-NS3 inh: -2.2	Hsc70 ATP site: 3.7%	MT1-MMP promoter: i

smiles: C=C(C)CSc1nnc(CCNC(=O)OC(C)(C)C)o1
  WNV NS2B-NS3 inh: 0.93	Hsc70 ATP site: -5.3%	MT1-MMP promoter: i

Further structures follow:
The line under a structure holds: WNV NS2B-NS3 inh | Hsc70 ATP site | MT1-MMP promoter
COc1ccc(OC)c(NC(=O)C2C3CCC(C3=C(C)C)C2C(=O)O)c1 (centres undefined)
    0.39 | -6.0% | i
CC(C)Oc1ccc2c3c(c(=O)oc2c1)CCC3
    -0.5 | -8.5% | i
Cc1cc(/C=N/n2cnnc2)c(C)n1-c1ccc(OCc2ccc(Cl)cc2)cc1
    . | 2.6% | i
[O-][N+]1=c2ccc(Nc3ccccc3)cc2=NC12CCCCC2
    -2.6 | -3.5% | i
CCOC(=O)N1CCN(C(=O)C(C)N(c2ccc(Oc3ccccc3)cc2)S(C)(=O)=O)CC1 (centres undefined)
    -0.09 | -2.6% | i
COc1nc(OC)nc(N2CCC(NC(=O)C(Cc3ccc(C(C)C)cc3)NC(C)=O)CC2)n1 (centres undefined)
    0.11 | -3.6% | i
Cc1cnc(NC(=O)CSc2nnc(Cc3ccccc3)o2)s1
    0.06 | 4.2% | i
COC(=O)CSc1nnc2c(C)cc3cc4c(cc3n12)OCCO4
    -0.75 | -1.6% | i
O=c1cc(CO)oc(C(Nc2ccccn2)c2ccccc2F)c1O (centres undefined)
    0.73 | 0.4% | i
O=C(CSc1nnc(-c2ccc3c(c2)OCCO3)o1)N1CCCC1
    1.4 | 12% | i
CCCC(=O)Nc1sc2c(c1C#N)CCCCC2
    . | -0.5% | i
CCOC(=O)c1c(C)n(C)c2ccc(OC(=O)c3ccco3)cc12
    . | 3.4% | i
CC(C)(C)n1nnnc1C(c1cc2cc3c(cc2[nH]c1=O)OCO3)N1CCN(c2ccccc2)CC1 (centres undefined)
    0.42 | 1.8% | i
O=C(CCCC(=O)N(CC(=O)NC1CCCC1)C1CCCC1)Nc1ccccn1
    -0.23 | -2.5% | i
COc1ccc(NCc2nnc(SCC(=O)Nc3cc(C)cc(C)c3)o2)cc1
    0.46 | 2.9% | i
Cc1ccc[n+](/C(C(=S)NCc2ccco2)=C(/[O-])c2ccccc2Cl)c1
    . | 0.5% | i
COc1cc(-c2cc(OC)c3c(C)oc(C)c3c(=O)c2)ccc1O
    -0.74 | 2.1% | i
CCc1ccc(NC(=O)NCCN2CCc3ccccc3C2)cc1
    -0.82 | -7.7% | i
CC(CN1CCCCC1)OC(=O)c1ccc(Cl)cc1 (centres undefined)
    -0.13 | 1.5% | i
COCCNC(=O)c1ccc(NS(C)(=O)=O)cc1
    1.4 | 5.9% | i
CSc1nc(-c2ccc(Cl)cc2)nn1S(=O)(=O)c1ccccc1
    . | 4.5% | i
O=C(NCc1ccco1)c1cc2nc(-c3ccc4c(c3)OCO4)cc(C(F)(F)F)n2n1
    -0.7 | -3.6% | i
C=C(Br)Cn1c(CC)nc2ccccc21
    . | -3.1% | i
CSc1cccc(NC(=O)c2ccco2)c1
    1.9 | 4.2% | i
O=C(CCC1CCCCC1)N1CCN(Cc2ccc3c(c2)OCO3)CC1
    -0.28 | -3.6% | i
CCOC(=O)c1sc(NC(=O)c2ccc(Br)o2)cc1C
    -1.2 | -7.4% | i
COc1ccc2[nH]c(=O)c(CN(C(=O)c3ccccn3)C3CCCCC3)cc2c1
    0.49 | 1.7% | i
O=C1CC(O)(c2ccccc2)C(c2ccccc2)=C1c1ccccc1 (centres undefined)
    . | 1.3% | i
COc1ccc(NS(=O)(=O)CC23CCC(CC2=O)C3(C)C)cc1 (centres undefined)
    . | 3.5% | i
CC1(C)C/C(=N\O)c2cc3c(nc2C1)CCCC3
    0.72 | 4.6% | i
COc1ccc(NC2CC(=O)N(CCc3ccccc3)C2=O)cc1 (centres undefined)
    . | -0.5% | i
O=C(Cc1ccccc1)n1nc(-c2ccco2)nc1SCc1ccccc1
    . | -3.3% | i
COc1cc(C2C(C(=O)c3ccc(C)o3)=C(O)C(=O)N2c2cc(C)on2)cc(OC)c1OC (centres undefined)
    -0.46 | 2.0% | i
Cc1cc(C)c(NC(=O)CCCN2CCOCC2)c(C)c1
    -0.99 | 2.1% | i
O=C(Nc1ncnc2sc3c(c12)CCCCC3)c1ccco1
    -0.05 | -0.3% | i
CCOc1cc(C)c(C(C)C)cc1S(=O)(=O)n1ccc(C)n1
    -0.17 | 6.3% | i
c1ccc(-n2nnnc2NCCCN2CCOCC2)cc1
    . | 4.6% | i
CCOc1ccc(CCNC(=O)C2CCCN(c3nn4c(=O)cc(C)nc4s3)C2)cc1 (centres undefined)
    -0.53 | -1.0% | i
Cn1c(-c2ccccc2O)cc2ccccc21
    . | -0.3% | i
Cc1ccc2[nH]c(=O)c(CN(Cc3ccc4c(c3)OCO4)Cc3nnnn3C3CCCC3)cc2c1
    -0.77 | -1.8% | i
CCS(=O)(=O)NCCCCc1ccccc1
    -0.01 | -2.6% | i
CC(C)C(=O)N(c1ccc(F)cc1)C1C=CS(=O)(=O)C1 (centres undefined)
    -0.98 | 4.8% | i
Cc1cc(C(=O)Nc2cccnc2)no1
    0.9 | 9.1% | i
CNc1nc(SC)nc(N2CCOCC2)n1
    0.3 | -0.5% | i
CCOC(=O)c1c(NC(=O)CCCN2CCOCC2)sc2c1CC(C)(C)OC2
    . | 1.7% | i
Cc1cccnc1NC(=O)COc1ccc2oc3c(c2c1)CCCC3
    -0.43 | 6.0% | i
O=C(NC1CCS(=O)(=O)C1)Oc1ccc(Cl)cc1 (centres undefined)
    . | 0.6% | i
CSc1ccc(S(=O)(=O)Nc2ccc(N3CCOCC3)c(Cl)c2)cc1
    -0.14 | 5.9% | i
O=C(NCc1cccnc1)c1ccc(CS(=O)(=O)Cc2ccc(Cl)cc2)o1
    0.61 | -1.0% | i
c1ccc(-c2nnc(CSc3nnc(-c4cccs4)o3)o2)cc1
    1.4 | 3.4% | i
Cc1ccc(Cn2ccc(NC(=O)c3nc4ncccn4n3)n2)cc1
    1.5 | 2.7% | i
CCOc1ncccc1C(=O)Nc1ccc2c(C)cc(=O)oc2c1
    -0.26 | 5.7% | i
COc1cc(NC(=O)CN(C)S(=O)(=O)c2ccc(C)cc2)cc(OC)c1
    -0.17 | 0.0% | i
CCOc1ccc(N(C)S(=O)(=O)c2ccc3[nH]cc(C(=O)NCC4CCCO4)c(=O)c3c2)cc1 (centres undefined)
    -0.99 | -9.8% | i
Cc1c(NC(=O)CN2CCN(C(c3ccccc3)c3ccccc3)CC2)c(=O)n(-c2ccccc2)n1C
    0.92 | 0.4% | i
O=C(Cn1cc2c(n1)CCCC2)NC1CCCCCC1
    -0.16 | -2.2% | i
Cc1nn(-c2ccccc2)c(C)c1C1C(C#N)=C(N)Oc2n[nH]c(C)c21 (centres undefined)
    . | 6.3% | i
Cc1cc(C)c(C2C(C#N)=C(N)Oc3n[nH]c(C)c32)cc1CN1CCCC1 (centres undefined)
    0.19 | 1.5% | i
CCOC(=O)CSc1nnc(CNc2cccc(Cl)c2)n1C
    . | 3.9% | i
CCn1c(C(=O)N2CCC(C(=O)NCCCSC3CCCCC3)CC2)cc2sccc21
    0.09 | -0.4% | i

Later entries.
The line under a structure holds: WNV NS2B-NS3 inh | Hsc70 ATP site | MT1-MMP promoter
CC1CCCCC1NC(=O)CSc1nnc(N)s1 (centres undefined)
    -0.94 | -1.7% | i
O=C(NCC1CCCO1)C1CCCN(c2ncccn2)C1 (centres undefined)
    -0.41 | -8.9% | i
CC1CCCC(NC(=O)CSc2nnc(N)s2)C1C (centres undefined)
    -0.81 | 0.1% | i
O=C(Nc1ccc(F)cc1)N(Cc1nnc2n1CCCCC2)c1ccccc1
    0.56 | -6.5% | i
CC(=O)C1=C(C)NC(SCC(=O)c2ccccc2)=C(C#N)C1c1ccco1 (centres undefined)
    -0.64 | 1.7% | i
O=C(Oc1oc(-c2ccco2)nc1C=Nc1ccccc1)c1ccco1
    0.44 | 2.0% | i
Cc1ccc2c(c1)nnn2C1CCN(S(=O)(=O)c2ccc(C(=O)N(C)C3CCCCC3)cc2)CC1
    1.4 | -6.2% | i
Clc1cccc(-c2nn3c(COc4ccccc4)nnc3s2)c1
    0.34 | 1.6% | i
O=[N+]([O-])c1ccc(NCCNc2ccc(Cl)nn2)cc1
    . | 0.7% | i
CC(=O)Nc1ccc(C2Nc3ccccc3C(=O)N2C2CCCCC2)cc1 (centres undefined)
    0.39 | 2.6% | i
O=C(c1ccco1)n1c(=S)nc2ccccn21
    0.1 | -1.8% | i
COC(=O)c1c(F)c(F)c(N2CCOCC2)c(F)c1F
    -0.91 | -3.7% | i
CCN(CC)Cc1c(CC(C)C)oc(C)c1C(=O)O
    . | -1.3% | i
Cc1nc2ccccc2nc1SCC(=O)N1CCC(C)CC1
    . | -4.4% | i
CCN(CC(=O)NCc1ccccn1)S(=O)(=O)c1ccc(Cl)cc1
    0.2 | 1.3% | i
COC(=O)c1ccc(COc2ccc(C3C4=C(CCCC4=O)Nc4onc(C)c43)cc2)cc1 (centres undefined)
    0.67 | -8.1% | i
COc1cc(OC)cc(C(=O)Nc2ccccc2NC(C)=O)c1
    0.4 | -1.7% | i
O=C(CSc1ccc2nnc(-c3cccnc3)n2n1)NCC1CCCO1 (centres undefined)
    -0.97 | -0.8% | i
CC1(C)CC(=O)C2=C(C1)NC(=O)CC2c1cc2c(cc1Br)OCO2 (centres undefined)
    -0.96 | 7.9% | i
CN(C)c1nc2ccccc2c(N)c1-c1ccccc1
    -0.02 | -2.7% | i
COC(=O)c1[nH]c2ccccc2c1NC(=O)CN1CCCCCC1
    0.15 | 0.9% | i
Cc1ccc(C)c(C(=O)CSc2nnnn2-c2cccnc2)c1
    -0.34 | 0.2% | i
CCOc1ccc(-c2cc(NC(=O)Cn3ncc4c3-c3ccccc3OC4)on2)cc1OCC
    -1.1 | -1.0% | i
Cc1ccc2nc(Cc3ccc(N)cc3)oc2c1
    -1.2 | 3.8% | i
Cc1cc(SCC(=O)N2CCCC2)nc2ccccc12
    -0.92 | -2.5% | i
Cc1ccc(S(=O)(=O)N(C)CC(=O)N2CCCC2)cc1
    . | -0.6% | i
COC(=O)c1ccc(C2NC(C(=O)O)CS2)cc1 (centres undefined)
    1 | 4.0% | i
O=C(CSc1nnc2ccccn12)Nc1ncc(Cl)cc1Cl
    . | 1.4% | i
COc1ccc(C2=NOC(C(=O)NCc3ccc(F)cc3)C2)cc1 (centres undefined)
    -0.39 | 4.7% | i
O=C(O)c1c(Cl)c(Cl)c(Cl)c(Cl)c1C(=O)N1CCCC1
    . | -0.6% | i

Not a retest: entries from further up.
The line under a structure holds: WNV NS2B-NS3 inh | Hsc70 ATP site | MT1-MMP promoter
CC1CCCC(NC(=O)CSc2nnc(N)s2)C1C (centres undefined)
    -0.81 | 0.1% | i
O=C(Nc1ccc(F)cc1)N(Cc1nnc2n1CCCCC2)c1ccccc1
    0.56 | -6.5% | i
